Compound activity: PubChem, National Center for Advancing Translational Sciences (NCATS)
PINK1 expr mod: A Quantitative High throughput Screen to Identify Chemical Modulators of PINK1 Expression | PINK1 immunofluorescence, high-content cytometry, 24 h | Potency, µM (doses to about 76.6 µM), inactives show at the highest dose activation (PINK1 increase), actives largely listed as activators | hit rate 0.2% among 410,000 | AID 624263, 2012; active = well fitted activation curve with a large enough effect; inconclusive = small, poorly fitted or top-dose-only effect; inactive = flat fitted curve, though single readings scatter; cell line not stated here;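 note: potency is the fitted concentration of half-maximal effect; % of control where 0% means no effect; nearly all actives have a fitted effect of over 65% in size; a mitochondrial uncoupler was the plate control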
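Measures PINK1 amount and localization on or inside mitochondria by immunofluorescence. Stable cells get compounds at 5 concentrations for 24 hours before fixation and staining; CCCP controls included.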
D2 ag: Beta-Arrestin HTS for Positive Allosteric Modulators of the Human D2 Dopamine Receptor: Agonists; AID 624465, 2012; D(2) dopamine receptor (Homo sapiens), P14416; activation, % (concentration not given with the values); DiscoveRx PathHunter D2 beta-arrestin, luminescence, 90 min; 100% = 57 uM dopamine signal; hit rate 0.084% among 360,000; in the data active = activation above about 40%; inconclusive = about 15% to 40%; inactive = below about 15%; note: compound concentration not given in the record; the text of the record calls up to 30% inactive
Target sequence (P14416 whole entry, looked up): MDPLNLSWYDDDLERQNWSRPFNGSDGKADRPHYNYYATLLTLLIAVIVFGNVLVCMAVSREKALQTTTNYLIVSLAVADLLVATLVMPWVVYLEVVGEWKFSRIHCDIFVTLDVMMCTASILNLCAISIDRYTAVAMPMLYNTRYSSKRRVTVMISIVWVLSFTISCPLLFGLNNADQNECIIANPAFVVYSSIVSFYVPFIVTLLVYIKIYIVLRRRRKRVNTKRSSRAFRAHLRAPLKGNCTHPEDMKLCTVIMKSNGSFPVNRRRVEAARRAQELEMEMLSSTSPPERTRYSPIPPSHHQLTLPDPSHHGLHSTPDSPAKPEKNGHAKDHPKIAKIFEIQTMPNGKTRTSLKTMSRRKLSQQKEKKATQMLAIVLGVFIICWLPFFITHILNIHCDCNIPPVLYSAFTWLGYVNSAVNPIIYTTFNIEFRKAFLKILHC
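DiscoveRx PathHunter D2 beta-arrestin cells (2,100/well) attached overnight, then compound-stimulated 90 min at 37 C in HBSS/10 mM HEPES/0.1% Tween-20 buffer; beta-galactosidase complementation read by luminescence after 1 h at ambient temperature. Dopamine 57 uM final (EC100) as control.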
Six1-Eya2 inh: qHTS Assay for Inhibitors of the Six1/Eya2 Interaction | hit rate 0.56% among 360,000 | activity change, % (no concentration beside the values) | Homeobox protein SIX1 (Homo sapiens) + Protein phosphatase EYA2 (Homo sapiens), … | AlphaScreen GST-Six1/His-Eya2 binding, biochemical; stronger effect = lower value; control for the full effect not named in the record | AID 651725, 2012; in the data active = activity change below about -65%; inconclusive = about -30% to -65%; inactive = above about -30%; note: % is set by controls: 0 for no effect and ±100 for the full control effect; compound concentration not given in the record
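AlphaScreen with GST-Six1 and His-Eya2 (5X mix: 250 nM and 500 nM), glutathione donor and nickel acceptor beads; buffer 50 mM Tris pH 8.0, 300 mM NaCl, 1 mM TCEP; 1 h at 37 C in the dark.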
TRPV1 potentiator: HTS Assay for Compounds that Act as Potentiators of the Vanilloid Receptor 1; potentiation, % at 8.33 µM; Transient receptor potential cation channel subfamily V member 1 (Homo sapiens), Q8NER1; hit rate 0.02% among 320,000; TRPV1-expressing cells, Fluo-8 calcium influx, capsaicin EC20 potentiation; host cell line not named in the record; control for the full effect not named in the record; AID 540277, 2011; active means potentiation above 80%; inconclusive means 30% to 80%; inactive means below 30%; note: 0% is about no effect
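Cells expressing TRPV1 were dye-loaded with Fluo-8 and read kinetically: 10 s baseline, 3 min after compound (agonist portion), then 2 min after EC20 capsaicin (allosteric enhancer portion). Calcium-bound dye fluorescence at 480/520 nm.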
D2 PAM: Beta-Arrestin HTS for Positive Allosteric Modulators of the Human D2 Dopamine Receptor: Potentiators; potentiation, % (test concentration not listed); hit rate 0.23% among 360,000; DiscoveRx D2 beta-arrestin cells, luminescence, 90 min; 100% = 57 uM dopamine signal; active = potentiation of 50% or more; inconclusive = 30% to 50%; inactive = 30% or less;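 note: compound concentration not given in the record; tested on top of an EC20 dose of dopamine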
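PathHunter D2 cells, attached overnight at 37 deg C, received compound in DMSO plus dopamine at EC20 (50 nM final) for 90 min at 37 deg C. Beta-arrestin recruitment was read as luminescence after 1 h with detection reagent at ambient temperature.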
Sfp PPTase inh: qHTS Assay for Inhibitors of Bacillus subtilis Sfp phosphopantetheinyl transferase (PPTase) | 4'-phosphopantetheinyl transferase ffp (Bacillus subtilis), Q9F4F7 | Biochemical Sfp PPTase activity, qHTS | Potency, µM, without a hit: max response, negative = inhibition, usual class: inhibitors | hit rate 3.5% among 310,000 | AID 1490, 2009; active = well fitted inhibition curve with a large enough effect; inconclusive = small, poorly fitted or top-dose-only effect, or another doubt; inactive = no such curve, though single readings can be large or run the other way;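 note: the enzyme is Sfp with the accession as filed and its product quenches rhodamine fluorescence; potency is the fitted concentration of half-maximal effect; 0% = enzyme reaction without inhibitor and -100% = no enzyme wells; top concentration of the series not given in the record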
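Step 1, compound plus 15 nM Sfp-PPTase, 15 min, room temperature. Step 2, add rhodamine-CoA (5 uM) and BHQ-2-YbbR (12.5 uM). Step 3, read 525/598 nm fluorescence at 0 and 30 min.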
CtBP-E1A inh: qHTS Assay for Inhibitors of the CtBP/E1A Interaction; CtBP / adenovirus E1A interaction (AlphaScreen); AlphaScreen GST-E1A/His-CtBP binding, 1536-well; stronger effect = lower value; control for the full effect not named in the record; hit rate 0.49% among 340,000; AID 651724, 2012; activity change, % (no concentration beside the values); in the data active means activity change below about -65%; inconclusive means about -30% to -65%; inactive means above about -30%; note: % is set by controls: 0 for no effect and ±100 for the full control effect; compound concentration not given in the record
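In 5 uL wells, 23 nL compound meets equimolar GST-E1A and His-CtBP (5X stock 125 nM each) for 2 h, 37 °C. Beads (5X, 50 ug/mL) then 1 h, 37 °C, dark.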
* hit, by the source's call; u = inconclusive; x = no result given; & = joins results of further samples; [ ] = remark or other dose.

SMILES | PINK1 expr mod | D2 ag | Six1-Eya2 inh | TRPV1 potentiator | D2 PAM | Sfp PPTase inh | CtBP-E1A inh
COC(=O)C1C(=O)C2=C(CC1C)NC(=O)CC2c1cccc(C)c1 (centres undefined) | -0.7% | 0.3 | -4 | -10 | -6 | 10% | -3
CSc1cccc(NC(=O)COC(=O)c2ccccn2)c1 | 1.0% | -0.6 | 4 | 27 | -1 | x | x
Cc1cc(N(C)Cc2ccccc2)nc(-c2ccccc2)n1 | 14% | -4.9 | 18 | -13 | -17 | -29% | 19
CC12CCC(C(=O)N(c3ccccn3)c3ccccn3)(OC1=O)C2(C)C (centres undefined) | 3.3% | 1.1 | -14 | 4 | -4 | -11% | -13
CC(=O)Nc1cc(Cl)ccc1OS(=O)(=O)c1ccc(C)cc1 | 0.6% | -7.3 | 6 | 1 | -10 | 16% | 4
Cc1cc(C)cc(NC(=O)CCc2nc3sc4c(c3c(=O)[nH]2)CCCC4)c1 | 1.7% | -3.9 | -13 | u | -10 | x | 4
CCOC(=O)c1cc(NC(=O)CNCC(c2ccccc2)N(C)C)cc(C(=O)OCC)c1 (centres undefined) | 3.3% | 2.3 | 1 | -6 | -8 | -24% | -3
CCn1c(COc2ccccc2C)nnc1SCC(=O)N1CCC(C)CC1 | -0.4%[38.3 µM] | -0.6 | -5 | 1 | -5 | 21% | 1
CCOC(=O)C1CCCN(C(=O)c2ccc3c(c2)N(C)C(=O)/C(=C/c2ccccc2Cl)S3)C1 (centres undefined) | 0.8% | -1.4 | -1 | 4 | -12 | -18% | -7
CC(C)(C)c1ccc(CC(=O)N2CCC2(C)C(=O)NS(=O)(=O)c2cccc(C#N)c2)cc1 (centres undefined) | 1.9% | -1.6 | 15 | x | -6 | x | 0
O=C(CSc1nc2ccccc2c(=O)[nH]1)Nc1ccc([N+](=O)[O-])cc1 | u | -1.1 | -8 | x | -27 | x | 6
CCC(Oc1ccccc1)C(=O)Nc1ccccc1C(=O)N1CCCCC1 (centres undefined) | 1.9% | -2.2 | 3 | -27 | 69* | 11% | 9
COc1ccc(C(=O)NNC(=S)Nc2ccccc2)cc1 | 0.1% | -8.8 | -1 | 27 | -12 | 22% | -14
O=C(NC1(C(F)(F)F)C(=O)Nc2c1c(=O)[nH]c(=O)n2Cc1ccco1)C1CCCCC1 (centres undefined) | 0.1% | -0.8 | -1 | 3 | -3 | 2% | -1
COc1ncc(-c2ccc3c(c2)S(=O)(=O)c2cccc(C(=O)NCc4ccco4)c2C3=O)cn1 | 5.2% | -2.1 | 1 | 4 | -14 | x | -1
Cc1cc([N+](=O)[O-])ccc1NCc1ccco1 | 2.0% | -4.2 | -4 | 17 | -3 | 15% | -1
CCc1nc2oc3ccccc3c(=O)c2c(=O)n1Cc1ccc(OC)cc1 | -2.0% | -1.0 | -2 | 24 | -15 | 17% | -22
O=C(CNC(=S)N(Cc1ccccc1F)C1CCCCC1)NCCN1CCOCC1 | -0.6% | -5.1 | 1 | -6 | 0 | 20% | 4
Cc1cc(=O)c2ccc3ccccc3c2[nH]1 | -0.7% | -6.0 | -14 | -10 | -47 | 12% | 1
CCC(CC)C(=O)NCCc1cc2c(C)ccc(C)c2[nH]c1=O | 0.9% | 2.0 | 6 | 0 | 5 | 9% | 2
Cc1ccc(-c2nnc(NC(=O)C3=COCCO3)o2)c(C)c1 | -1.0% | -1.1 | -23 | u | -2 | x | u
Cc1cc(-c2ccccc2)[nH]c(=O)c1S(=O)(=O)c1ccccc1 | -0.7% | -2.1 | -4 | x | -6 | -1% | -16
COc1ccccc1C1=NC(c2ccccc2)CN1c1ccccc1 (centres undefined) | 12% | 12 | 80 | -48 | 2 | -13% | 107
COCCCNS(=O)(=O)c1ccc2[nH]c3c(c2c1)CCCCC3 | -0.8% | 4.3 | -12 | 14 | -7 | 0% | x
O=C(N/N=C/c1ccccc1OC(=O)c1ccc2c(c1)OCO2)c1ccccc1 | 1.2% | -4.5 | -23 | -8 | 18 | -3% | 3
Cc1cc(C(=O)OCC(=O)NC(C)c2ccccc2)c(C)o1 (centres undefined) | -0.5% | -0.9 | -1 | -18 | -17 | 9% | -6
O=C(Nc1cccnc1)c1ccc(F)cc1 | -1.3% | -2.5 | 7 | -16 | -27 | 2% | 5
Cc1onc(-c2ccccc2)c1C(=O)Nc1nnc(-c2ccncc2)s1 | 9.1%[38.3 µM] | 3.5 | 3 | 18 | 20 | 11% | 13
COc1ccccc1N1CCN(CCN2C(=O)CC3(CCCC3)CC2=O)CC1 | 2.2%&1.5% | -2.7 | 6 | x | -35 | 11%&6% | -8
CC(=O)n1cc(/C=N/NC(=O)c2ccc([N+](=O)[O-])cc2)c2ccccc21 | 1.0% | 11 | -10 | -10 | -4 | 9% | x
C[C@@H]1CN([C@@H](C)CO)C(=O)c2c(c3ccccc3n2C)-c2ccccc2CO[C@H]1CN(C)C(=O)C1CC1 | -1.6% | -1.9 | 8 | x | 2 | x | -3
CSc1ncnc2c1ncn2CC(=O)C1CCC2C3CCC4=CC(=O)CCC4(C)C3CCC12C (centres undefined) | 5.4% | 8.8 | -9 | x | -2 | x | 0
COc1ccccc1NC(=O)CSc1nnc(CNC(=O)c2ccco2)n1C | 3.1% | -1.5 | -10 | -10 | 1 | 11% | 6
CCOC(=O)C[C@H]1c2ccccc2S(=O)(=O)N1Cc1cccc(C(F)(F)F)c1 | -0.6% | -1.2 | 13 | x | -10 | x | 4
CCOc1ccc(NS(=O)(=O)c2ccc(C(=O)NCC(C)(C)N3CCOCC3)cc2)cc1 | -3.4% | -2.3 | 7 | -3 | 10 | x | 2
C=CCNC(=O)NC(=O)CSc1nc2cc([N+](=O)[O-])ccc2n1-c1cccc(C(F)(F)F)c1 | 11% | -2.2 | 6 | -3 | -4 | 18% | 1
CCCOC(=O)C1C2C=CC3(CN(c4ccc(Cl)c(F)c4)C(=O)C13)O2 (centres undefined) | 0.2% | 4.9 | 0 | 4 | -3 | 23% | 2
O=C(O)c1n[nH]c2c1CC(C1CCCCC1)CC2 (centres undefined) | 0.7% | 0.0 | 0 | -8 | -9 | x | 4
CCN1CCCC1Cn1cnc2c([nH]c3ccc(C)cc32)c1=O (centres undefined) | -0.2% | -5.6 | -8 | x | -11 | 13% | 0
O=C(NCc1ccco1)C(=O)c1cn(CC(=O)N2CCCCC2)c2ccccc12 | 2.6% | 0.5 | -4 | 0 | -16 | 6% | 2
Nn1c(SC/C=C/c2ccccc2)nnc1-c1ccco1 | -0.4% | -6.7 | 3 | -6 | 10 | 3% | 3
COc1ccc(-n2c(-c3ccccc3)cc3c2CCCC3=O)cc1 | 9.4% | -0.1 | u | -2 | -21 | -3% | u
Cn1c(=O)c2ncn(CC(=O)NCCOc3ccc(C(C)(C)C)cc3)c2n(C)c1=O | -4.3% | -4.6 | 0 | -3 | -6 | -9% | 5
O=C(c1cc(S(=O)(=O)N2CCN(c3ccccc3)CC2)ccc1Cl)N1CCCC(C(F)(F)F)C1 (centres undefined) | 3.6% | 2.9 | -11 | 3 | -9 | x | -25
COCC(C)NS(=O)(=O)c1ccc(OC)cc1 (centres undefined) | 3.4% | -3.3 | -2 | 27 | -7 | 17% | 5
CCN(CC)S(=O)(=O)c1cccc(-c2nnc(SCC(N)=O)n2C)c1 | 0.9% | -0.8 | 5 | -5 | 4 | 14% | -1
Cc1c(-c2nc(N)nc(Nc3ccccc3F)n2)oc2ccccc12 | 0.1% | -0.9 | -7 | 17 | -9 | -2% | -10
Cc1oc(-c2ccccc2)cc1C(=O)Nc1cccc(/C=C/C(=O)O)c1 | 0.0% | -1.4 | -18 | -2 | -2 | 2% | -21
CCCCN(C(=O)c1[nH]c(C)c(C(C)=O)c1C)c1c(N)n(CCCC)c(=O)[nH]c1=O | 0.7% | 0.6 | -1 | 0 | 3 | x | -1
O=C(CN1CCN(c2ccc(F)cc2)CC1)N1CCOCC1 | 2.1% | 1.7 | 12 | 15 | -6 | 4% | -2
S=c1[nH]nc(C2(c3ccccc3)CCCC2)o1 | -0.7% | -1.3 | -22 | 0 | -8 | -13% | 1
Cc1ccc(NC(=O)c2cc(-c3cc(F)ccc3OCC3CCCO3)n[nH]2)cc1NS(C)(=O)=O (centres undefined) | -0.9% | 14 | -9 | x | -9 | x | -9
COc1cc(NC(=O)C/C(C)=N/NC(=O)C(OC)c2ccccc2)c(OC)cc1Cl (centres undefined) | 2.1% | -5.3 | -25 | 0 | -16 | 12% | u
CSc1ccc(Cl)c(C(=O)OCC(=O)NCc2ccco2)c1 | -0.2% | -1.3 | -2 | 3 | 14 | u | -6
COc1cc(OC)c(C2=NOC(C(=O)N3CCCc4ccccc43)C2)cc1Cl (centres undefined) | 0.7%[38.3 µM] | -0.7 | 2 | -1 | 11 | -8% | 12
